# H5N1 CPE = MDCK cell protection from H5N1 avian flu. cytopathic effect, luminescence, 72 h; stronger effect = higher value; no value below 0 was filed and about half of the inactive calls have no number; reference of the scale not given here. inhibition, % at 50 µM. 0.07% of 96,000 active. AID 740; in the data active = inhibition above about 25%
# * = called active by the depositor; i = inactive. The list is partial. The share of hits here may be higher or lower than overall.
SMILES,H5N1 CPE
c1coc(CNc2nc3ccccc3n2CCN2CCOCC2)c1,11
CCCCNC(=O)C1CC(c2cccc([N+](=O)[O-])c2)=NO1 (stereo unspecified),i
Cc1ccc(S(=O)(=O)N2CCOCC2)cc1C(=O)NCc1ccc2c(c1)OCO2,0.8
COc1ccccc1N(C)S(=O)(=O)c1ccc(C(=O)N(CC(N)=O)C(C)C)cc1,0.2
CCOC(=O)C1CCN(/C=C2/C(=O)NC(=O)N(c3ccc(OCC)cc3)C2=O)CC1,1.0
O=C(CCN1C(=O)/C(=C\c2ccccc2Cl)SC1=S)N1CCN(c2ccccc2)CC1,0.7
CC(=O)c1c(C)n(CCO)c2ccc(O)cc12,2.3
NNc1ncnc2c1cnn2-c1ccccc1,i
CCOc1cc(C(=O)NCCN2CCOCC2)cc(OCC)c1OCC,i
CCc1ccc2oc(=O)cc(CN3CCCCC3C)c2c1 (stereo unspecified),1.8
CCOC(=O)C1=C(C)N(C)C(C)=C(C(=O)OCC)C1c1ccncc1,0.7
N#CCSc1nnc(C2CCCCC2)n1Cc1ccccc1,i
CCCSc1nc(N)c(C#N)c(-c2ccc(C)cc2)c1C#N,i
O=C(NCCN1CCOCC1)c1ccc(F)cc1,i
CCCCn1c(SCC(=O)Nc2cc(C)on2)nc2ccsc2c1=O,0.2
CCS(=O)(=O)NCCc1cc2ccc(C)cc2[nH]c1=O,i
CCCOc1ccc(/C(O)=C2/C(=O)C(=O)N(CCCn3ccnc3)C2c2ccco2)cc1 (stereo unspecified),i
COc1cc(-c2noc(CCCC(=O)NC3CCCCC3)n2)cc(OC)c1OC,0.1
CC12CC(NC(=O)N1c1cccc(C(=O)NCc3ccc4c(c3)OCO4)c1)c1cc(Cl)ccc1O2 (stereo unspecified),i
Cn1c(SCC(=O)N2CCN(Cc3ccccc3)CC2)nnc1-c1ccncc1,0.5
Cc1nn(C)cc1/C=N/NC(=O)c1sc2ccccc2c1Cl,0.1
Cc1cccc(-n2ncc3c(NCc4ccccc4)ncnc32)c1,i
COc1ccc(S(=O)(=O)N2CCOCC2)cc1C(C)C,0.5
CC(=O)c1cccc(NS(=O)(=O)c2c(C)noc2C)c1,0.1
CC(=O)c1ccc(NC(=O)c2cc(CC(C)C)on2)cc1,i
C=CCNC(=O)CN1C2CCCC1CC(NC(=O)c1ccccc1C)C2 (stereo unspecified),i
CCn1cnc2sc(C(=O)Nc3ccc4c(c3)OCO4)c(C)c2c1=O,i
COc1ccc(NC(=O)CS(=O)CC(=O)NC2CCCc3ccccc32)cc1 (stereo unspecified),i
COc1cc(S(=O)(=O)N2CCN(c3ccc(F)cc3)CC2)ccc1Cl,0.8
O=C(Nc1nccs1)Oc1ccccc1,i
CCN(C(=O)c1cc(Cl)ccc1OC)C1CCCCC1,2.2
CCOC(=O)CN1C(=O)C(O)=C(C(C)=O)C1c1ccccc1 (stereo unspecified),i
COc1ccc(Cl)cc1NC(=S)NCCc1c[nH]c2ccccc12,i
COCc1cc(C)nc(SCC(=O)Nc2cccc3cccnc23)c1C#N,0.7
CC(C)(C)OCC(NC(=O)C(CC(N)=O)NC(=O)OC(C)(C)C)C(=O)OC(C)(C)C (stereo unspecified),0.1
CCc1cc(=O)oc2cc(OCC(=O)OC)c(Cl)cc12,0.0
Cn1c(COc2ccccc2)nnc1SCc1nc2ccccc2[nH]1,0.5
CC(=O)C1=C(C)Nc2ncnn2C1c1cccc(OCc2ccccc2)c1 (stereo unspecified),2.0
COc1ccc(C2CC(C(F)(F)F)n3ncc(C(=O)NCc4cccnc4)c3N2)cc1OC (stereo unspecified),i
Oc1c(C=Nc2cccc3cccnc23)sc2ccccc12,1.1
COc1ccc(CCNC(=O)CC2Nc3cc(C)c(C)cc3NC2=O)cc1OC (stereo unspecified),i
O=S(=O)(c1ccc(N2CCCC2)nc1)N1CCOCC1,i
CS(=O)(=O)N1CCc2cc(-c3csc(NC(=O)Cc4cccs4)n3)ccc21,0.8
Cc1oc(-c2cccs2)nc1CSCC(=O)N1CCC2(CC1)OCCO2,0.6
COC(=O)c1[nH]c2cc(OC)ccc2c1NC(=O)CN1CCC(C(N)=O)(N2CCCCC2)CC1,i
O=C(NCc1cn2ccsc2n1)c1cccs1,1.9
Cc1ccc(Nc2nc(-c3sc(NC(=O)c4cccc(Cl)c4)nc3C)cs2)cc1,i
CCCCOc1ccc(C(=O)N2CCC(C)CC2)cc1,0.2
CCC(=O)N1CCn2c1nc1ccccc12,0.7
Fc1ccc(-c2csc(N3CCC(c4ccccc4)C3)n2)cc1 (stereo unspecified),i
CCN1CCN(CC(O)COc2cccc(OC)c2)CC1 (stereo unspecified),i
CCCCNC(=O)CCn1c(=O)c2ccccc2n(CC(=O)Nc2ccccc2OCC)c1=O,0.5
COc1ccc(Nc2nc(N)nc(C(F)(F)F)n2)c(OC)c1,i
Cc1ccccc1N1CCN(S(=O)(=O)c2ccc3oc(=O)ccc3c2)CC1,i
COc1ccc(C(=O)OCCN=C2NS(=O)(=O)c3ccccc32)cc1OC,1.4
O=S1(=O)CC2(N3CCOCC3)CCCCC21 (stereo unspecified),i
CCCc1nc2ccccc2c(=O)n1/N=C/c1ccc(O)cc1O,i
CCCCOCCCNc1ncnc2c1[nH]c1ccccc12,0.5
NC(=O)CSc1nnc(CNc2ccc(F)cc2)n1CC1CCCO1 (stereo unspecified),23
O=C(CNS(=O)(=O)c1ccc(Br)s1)N1CCN(C(=O)c2ccco2)CC1,0.6

# Next section
SMILES,H5N1 CPE
CSc1ccc(S(=O)(=O)Nc2ccc(S(=O)(=O)Nc3ccc(C)cc3)cc2)cc1,0.1
CN(C)c1ccc(NC(=O)c2sc(SCC(=O)Nc3ccc(Br)cc3)nc2N)cc1,i
N#CC1=C(S)N(c2ccccc2)C(c2cccs2)NC1=O (stereo unspecified),0.7
O=P(OCC(F)(F)C(F)F)(N1CCCCC1)N1CCCCC1,0.2
O=C(C1CC(c2ccc(F)cc2)=NO1)N1CCN(Cc2ccccc2)CC1 (stereo unspecified),i
COC(=O)CSc1nnc(-c2sc3cc(OC)ccc3c2Cl)n1C,0.9
O=C(Nc1cccnc1)C1CC(c2ccccc2O)=NO1 (stereo unspecified),0.1
CCOC(=O)C1CCN(C(C)=C2C(=O)c3ccccc3C2=O)CC1,2.0
COc1ccc(-c2cccc(C(=O)Nc3ccc(OC)c(OC)c3)c2)cc1,i
CCC(C)N(C(=O)COC(=O)Cc1n[nH]c(=O)c2ccccc12)C1CCS(=O)(=O)C1 (stereo unspecified),0.2
CSc1nc(C)c2c(n1)N(c1ccc(C(C)C)cc1)CC2,0.0
COCCCNC(=O)CCS(=O)(=O)Cc1ccc(C)cc1,i
C#CCN1C(=O)C(O)(CC(=O)c2cccc(OC)c2)c2ccccc21 (stereo unspecified),i
O=C(c1ccccc1F)N1CCN(c2cccc(C(F)(F)F)c2)CC1,0.7
CCOC(=O)C1=C(CSc2nccn2C)NC(=O)NC1c1ccc2c(c1)OCO2 (stereo unspecified),0.2
CCC1Oc2ccc(C)cc2N(CC(=O)NCc2cc(OC)ccc2OC)C1=O (stereo unspecified),0.6
CCc1ccc2[nH]c(=O)c(CN(Cc3ccc4c(c3)OCO4)C(=O)c3ccco3)cc2c1,1.1
CCOC(=O)c1ccc(S(=O)(=O)N2CCN(S(=O)(=O)CC)CC2)cc1,0.8
Cc1ccc2c(c1)nc(NCCCO)n2C,1.0
CCCn1c(SCC(=O)NC23CC4CC(CC(C4)C2)C3)n[nH]c1=O,0.7
COc1ccc(-n2c(Cc3cccn3C)nnc2SCC(=O)N2CCCC2)cc1,i
N#Cc1c(-n2cccc2)cccc1-n1cccc1,i
Cc1sc2nc(CN3CCOCC3)nc(NCCc3ccccc3)c2c1C,i
Cc1nn(-c2ccc(C(=O)Nc3nnc(C4CC4)s3)cc2)c(C)c1Cl,i
COc1ccc(C(=O)OCC(=O)NCC2CCCCC2)cc1S(=O)(=O)N1CCCc2ccccc21,0.3
O=C(N/N=C/c1ccc[nH]1)c1sc2ccccc2c1Cl,4.1
CCn1c(C(C)NC(=O)c2cccs2)nc2ccccc21 (stereo unspecified),5.9
Cc1cc2c(c(=O)o1)C1(C(=O)N(CC(=O)O)c3ccccc31)C(C#N)=C(N)O2 (stereo unspecified),0.2
Cc1ccc(N(CC(=O)O)S(=O)(=O)c2cccc3nonc23)cc1,i
CCOC(=O)c1sc(=S)n(-c2ccc(F)c(F)c2)c1N,i
O=C(Nc1cccc(F)c1)c1cccc(S(=O)(=O)N2CCOCC2)c1,3.5
COc1ccc(C)cc1NC(=O)C(CCS(C)(=O)=O)NC(C)=O (stereo unspecified),i
CCn1c(CNc2nc3ccccc3n2C(C)C)nc2ccccc21,0.5
CCOC(=O)CN1C(=O)NC2NC(=O)NC21 (stereo unspecified),i
Cc1ccc(S(=O)(=O)NCCSCc2ccccc2)cc1,i
O=C(CSc1nnc(-c2ccccc2)o1)N1CCN(c2ccccc2)CC1,1.9
O=c1c(-c2ccc(Cl)cc2)coc2c(CN3CCOCC3)c(O)ccc12,i
CCNC(=O)C1(c2ccccc2)CCCC1,i
O=C1NCCCC1C(=O)NCCN1C(=O)CCC1=O (stereo unspecified),i
CCN(CC)S(=O)(=O)c1ccc(N2CCOCC2)c(NC(=O)C(=O)c2c(-c3ccccc3)cc3ccccn23)c1,0.1
Cc1ccc(/C=N/N2CCN(Cc3cccc4ccccc34)CC2)o1,0.3
Clc1ccc(-c2cc3ccccc3[nH]2)cc1,1.7
CCOC(=O)c1nn(-c2ccc(C)cc2)cc1C(=O)c1ccccc1,0.5
CSc1ccccc1N1CCN(C(=O)Nc2ccc3c(c2)NC(=O)CO3)CC1,1.1
Cn1cc(S(=O)(=O)N2CCN(Cc3ccccc3)CC2)c(=O)n(C)c1=O,i
CCOC(=O)C(CCC(=O)O)(CCC(C)C)c1csc(N)n1 (stereo unspecified),0.4
N=P(N1CCOCC1)(N1CCOCC1)C12CC3CC(CC(C3)C1)C2,i
Cc1ccc(S(=O)(=O)N2CC(O)CC2C(=O)Nc2ccc3c(c2)CCC3)cc1 (stereo unspecified),1.3
C=CCOC(=O)CCCC(=O)NC1CCCCC1,0.3
O=C(CN1C(=O)NC2(CCCCCC2)C1=O)N1CCN(S(=O)(=O)c2ccc(Cl)cc2)CC1,0.1
Nn1c(SCC(=O)NC2CCCCC2)nnc1C1CC1,0.5
O=C1SC(c2ccccc2)=C/C1=C\N1CCCCC1,i
COc1ccc(OC)c(NC(=O)Cn2cnc3c(cnn3-c3ccccc3)c2=O)c1,0.5
Cc1nc2sc(C(c3ccc(C(C)C)cc3)N3CCN(CCO)CC3)c(O)n2n1 (stereo unspecified),1.1
COc1cccc(C2=CC(c3cccc(OC)c3OC(F)F)n3nnnc3N2)c1 (stereo unspecified),i
COc1ccc(NS(=O)(=O)c2ccc(NC(=O)C3CCCO3)cc2)cc1 (stereo unspecified),0.5
C=CCN1C(=O)CSC1=Nc1cccc(O)c1,0.7
COc1ccccc1Oc1ccc(S(=O)(=O)N2CCOCC2)cc1S(=O)(=O)N1CCOCC1,0.8
Cc1ccccc1C(=O)Nc1ccc(-c2nc3ccc(C(=O)c4ccccc4)cc3[nH]2)cc1,i
O=C(NCc1cccnc1)/C(=C/c1ccco1)NC(=O)c1ccccc1,0.8

# The listing continues:
SMILES,H5N1 CPE
CCN1C(=O)c2ccccc2Sc2ccc(C(=O)N3CCC4(CC3)OCCO4)cc21,i
O=C(O)C1C2CCC(O2)C1C(=O)Nc1cnn(Cc2ccccc2)c1 (stereo unspecified),i
N#Cc1c(N)n(CCOC(=O)c2cccc(Br)c2)c2nc3ccccc3nc12,i
COc1ccc(C(=O)Nc2cc(=O)n(C)c(=O)n2C)cc1OC,i
Cc1cc(NC(=O)c2nn(C)c(C)c2[N+](=O)[O-])no1,i
CC(C)Oc1ccc(CNCC2(O)CCOC(C)(C)C2)cc1 (stereo unspecified),0.2
O=C(Cn1nnc(-c2ccccc2NC(=O)c2ccco2)n1)Nc1ccccc1,i
CCOC(=O)c1c(NC(=O)c2c(C)noc2C)sc2c1CCCCC2,0.3
COc1ccc(C)cc1NC(=O)COC(=O)c1c(C)noc1C,i
Cc1cc(C(=O)Cn2nnc3ccccc3c2=O)c(C)n1-c1ccccc1F,i
O=C(NCc1ccc2c(c1)OCO2)C1CC(=O)N(C2CCCCCCC2)C1 (stereo unspecified),i
CCOCCn1c(SCc2cccc(C)c2)nc2c1c(=O)[nH]c(=O)n2C,i
CCc1ccccc1NC1c2ccccc2C(=O)N1Cc1ccco1 (stereo unspecified),2.8
O=[N+]([O-])c1ccc(NC(=S)NCCc2ccc(Cl)cc2)cc1,i
O=C(NCc1ccco1)C1CCN(c2nc3ccccc3n2Cc2ccc(F)cc2)CC1,i
Cn1c(=O)cc(SCC(=O)N2CCN(c3ccccc3)CC2)c2ccccc21,0.6
CC(=O)C1=C(C)OC(N)=C(C#N)C1c1cc2cccc(C)c2nc1Cl (stereo unspecified),i

# Source: PubChem BioAssay
